# RGS4 act: RGS4 potentiation or activation | 0.92% of 310,000 active | HEK293 M3R/inducible RGS4, carbachol calcium flux Fluo4; stronger effect = lower value | B-score at 10 µM | AID 463111;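 active means B-score of the integrated calcium signal more than 4 SD below the library mean, with starting fluorescence not abnormally high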;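 further: negative B-score means reduced calcium response which marks RGS4 activation or potentiation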
#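 test system = HEK293 cells with stable M3R and inducible RGS4 | schedule = recording 10 s baseline at 1 Hz, 100 s post-agonist | technique = Fluo4-AM (2 µM) calcium-flux fluorescence, kinetic read | measure = Agonist-evoked peak-minus-minimum fluorescence over baseline, integrated ratio, B score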
# hERG protect: shields human hERG channel from block by proarrhythmic agents; Q12809; CHO-hERG, FluxOR thallium flux, dofetilide IC70 present; activation (rescue from dofetilide block), less the hit threshold, % at 10 µM; 0.51% of 310,000 active; AID 1511;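 active means activation above the mean of controls blocked by dofetilide plus 5 SD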;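 further: thallium influx through hERG after potassium depolarization seen as dye fluorescence rise; in these data hits start at about 4.7%; inactives centre near -7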
# Target sequence (Q12809 whole entry, looked up): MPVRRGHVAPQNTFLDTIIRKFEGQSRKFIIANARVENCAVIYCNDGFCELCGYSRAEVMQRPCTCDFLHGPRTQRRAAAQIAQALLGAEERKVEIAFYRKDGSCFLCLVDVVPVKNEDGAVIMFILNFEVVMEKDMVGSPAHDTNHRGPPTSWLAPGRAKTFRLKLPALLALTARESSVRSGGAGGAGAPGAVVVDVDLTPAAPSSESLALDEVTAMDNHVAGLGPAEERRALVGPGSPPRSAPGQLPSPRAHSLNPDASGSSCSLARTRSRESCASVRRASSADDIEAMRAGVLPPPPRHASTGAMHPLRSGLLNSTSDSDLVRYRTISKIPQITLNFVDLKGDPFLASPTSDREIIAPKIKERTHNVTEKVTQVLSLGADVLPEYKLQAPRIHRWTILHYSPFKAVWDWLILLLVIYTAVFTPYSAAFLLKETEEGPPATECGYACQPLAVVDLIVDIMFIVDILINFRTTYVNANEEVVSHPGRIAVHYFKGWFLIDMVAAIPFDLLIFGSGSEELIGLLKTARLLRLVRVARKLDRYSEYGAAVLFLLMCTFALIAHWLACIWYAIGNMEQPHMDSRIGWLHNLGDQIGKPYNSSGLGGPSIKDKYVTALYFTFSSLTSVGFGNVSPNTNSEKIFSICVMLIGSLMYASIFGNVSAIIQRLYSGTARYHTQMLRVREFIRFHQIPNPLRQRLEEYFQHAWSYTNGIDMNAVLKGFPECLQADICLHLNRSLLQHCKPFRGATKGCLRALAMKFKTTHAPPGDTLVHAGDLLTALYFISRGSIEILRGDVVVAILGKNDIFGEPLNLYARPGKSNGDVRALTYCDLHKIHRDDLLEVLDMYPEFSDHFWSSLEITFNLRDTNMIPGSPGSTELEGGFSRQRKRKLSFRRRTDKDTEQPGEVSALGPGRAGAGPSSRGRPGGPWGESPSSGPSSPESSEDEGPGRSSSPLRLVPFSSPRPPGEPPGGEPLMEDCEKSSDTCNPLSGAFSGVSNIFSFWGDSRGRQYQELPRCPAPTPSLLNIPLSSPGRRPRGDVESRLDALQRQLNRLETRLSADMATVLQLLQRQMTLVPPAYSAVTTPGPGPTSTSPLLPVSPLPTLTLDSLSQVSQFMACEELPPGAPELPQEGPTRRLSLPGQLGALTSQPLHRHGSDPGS
# GSK3B inh: blocks human GSK3beta kinase activity | activity score (negative = inhibition), % at 10 µM | P49841 | 0.038% of 300,000 active | GST-GSK3beta kinase, ADP-Glo luminescence, 60 min; stronger effect = lower value;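 active means more than half of replicate wells score below -50%, meaning over 50% inhibition versus plate controls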;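 further: 0% = median DMSO wells and -100% = median GW8510 positive control wells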
#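 Test system: GST-fused GSK3beta enzyme, cell-free | Quantity: 1.6 ng GST-GSK3beta enzyme per well | Reagent: 25 µM ATP with peptide substrate | Schedule: 60 min enzyme reaction, room temperature | Signal: Luminescent ADP-Glo measurement of ADP formed | Read-out basis: Score relative to plate controls | Control set: DMSO and 20 µM GW8510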
# PolyA inhibitor: yeast polyadenylation inhibition; S. cerevisiae SKY197-pL101 polyadenylation reporter, beta-gal luminescence; efflux-impaired pdr1/pdr3 knockout yeast; score 100 = 6 SD above DMSO; 0.02% of 300,000 active; calls only at 12 µM; AID 1875;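 active means lowest replicate activity score at least 50, where 100 means six control SD above control mean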;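 further: yeast exposed to compound for 9 h at 30 °C; higher score means more reporter readthrough which indicates perturbed polyadenylation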
# KCNQ1 block: human KCNQ1 channel inhibition; B-score at 10 µM; CHO-K1 KCNQ1, FluxOR thallium flux fluorescence; stronger effect = higher value; 1.3% of 310,000 active; P51787;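 active means compounds whose thallium flux B-score, printed positive for inhibition, exceeds three library SD while starting fluorescence stays within three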;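 further: channel opened by potassium depolarization with thallium stimulus after 20 min compound exposure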
# KCNQ1 act: potentiates or activates the human KCNQ1 potassium channel. P51787. CHO-K1 KCNQ1, thallium flux FluxOR fluorescence; stronger effect = higher value. B-score at 10 µM. 0.35% of 310,000 active. AID 2648;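 active means fluorescence ratio B-score, a plate-corrected score, at least three library SD, with initial intensity B-score within 5 SD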
#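 Schedule – 37 °C overnight plating, 90-min dark dye load, 20-min compound pretreatment · System – stable KCNQ1 CHO-K1 line · Probe or stimulus – thallium- and potassium-containing depolarizing buffer · Measured by – kinetic FluxOR fluorescence, 10 s baseline plus 110 s post-stimulus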
# KCNK9 block: human KCNK9 channel inhibition; 1.2% of 310,000 active; Q9NPC2; HEK293 KCNK9, FluxOR thallium flux fluorescence; stronger effect = lower value; B-score at 10 µM; AID 488922;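 active means ratio B-score over 3 SD below the library mean, with starting fluorescence within 5 SD of its mean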;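 further: negative B-score means less thallium flux so channel inhibition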
# RGS4 block: human RGS4 inhibition; P49798; HEK293 M3R/RGS4 inducible, Fluo-4 calcium flux; stronger effect = higher value; triggered by carbachol at its EC20; B-score at 10 µM; 0.45% of 310,000 active;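 active means B-score, a plate-corrected calcium signal, over three deviations above library mean, with baseline fluorescence within five deviations of library mean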;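 further: RGS4 expression induced by doxycycline in cells with stable M3 receptor; B-score is computed from the integrated fluorescence ratio over baseline after carbachol; higher B-score means a larger calcium signal and so more RGS4 inhibition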
# KCNK3 block: human KCNK3 channel inhibition, primary screen. O14649. CHO-KCNK3 thallium flux, FluxOR fluorescence; stronger effect = lower value. B-score at 10 µM. 0.84% of 340,000 active. AID 602410;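 active means B-score under library mean minus 4 SD, starting fluorescence ratio at most library mean plus 5 SD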;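 further: more negative B-score means stronger inhibition of thallium flux through KCNK3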
# GSK3A inh: blocks human GSK-3 alpha kinase; 0.1% of 320,000 active; ADP-Glo luminescence, 60 min; inhibition, % at 10 µM; P49840;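 in the data active means inhibition above about 50%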;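 further: GST-tagged GSK-3 alpha with peptide substrate and 25 µM ATP; 0% = DMSO neutral wells and 100% = GW8510 positive control wells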
# An asterisk follows results filed as active; i = inactive; . = no result given. These rows are one share of the data. The share of hits here may be higher or lower than overall.
# The opening 3 compounds as a preview:
SMILES,RGS4 act,hERG protect,GSK3B inh,PolyA inhibitor,KCNQ1 block,KCNQ1 act,KCNK9 block,RGS4 block,KCNK3 block,GSK3A inh
O=C(O)Cc1csc(NC(=O)CSc2nnnn2-c2ccc(O)cc2)n1,i,-8,-8,i,i,i,i,i,i,17
Nn1c(SCC(=O)Nc2ccc(S(N)(=O)=O)cc2)nnc1C(F)(F)F,i,-7,0,i,i,i,i,i,i,-2
COc1ccc(Cl)cc1-c1nc(-c2ccc(NC(=O)c3ccncc3)cc2)no1,i,-6,-3,i,i,i,i,i,i,1

# The whole of this part, repeating the preview:
SMILES,RGS4 act,hERG protect,GSK3B inh,PolyA inhibitor,KCNQ1 block,KCNQ1 act,KCNK9 block,RGS4 block,KCNK3 block,GSK3A inh
O=C(O)Cc1csc(NC(=O)CSc2nnnn2-c2ccc(O)cc2)n1,i,-8,-8,i,i,i,i,i,i,17
Nn1c(SCC(=O)Nc2ccc(S(N)(=O)=O)cc2)nnc1C(F)(F)F,i,-7,0,i,i,i,i,i,i,-2
COc1ccc(Cl)cc1-c1nc(-c2ccc(NC(=O)c3ccncc3)cc2)no1,i,-6,-3,i,i,i,i,i,i,1
O=C(O)c1cccc(S(=O)(=O)Nc2ccc(-c3ccccc3)cc2)c1,.,.,.,.,.,.,.,.,i,-5
O=C(NCCC1=CCCCC1)C1CCN(S(=O)(=O)c2cnc[nH]2)CC1,i,-4,.,i,i,i,i,i,i,-1
CC1CCN(C(=O)C2CCN(S(=O)(=O)c3cnc[nH]3)CC2)CC1,i,-8,0,i,i,i,i,i,i,2
C=CCNC(=O)C1CC(c2cccc(OC)c2)=NO1 (centres undefined),i,-8,0,i,i,i,i,i,i,-3
COc1ccc(OC)c(-n2c(-c3cccc(O)c3)n[nH]c2=S)c1,i,-10,3,i,i,i,i,i,i,0
CCOC(=O)c1cc(C(=O)NN)c(=O)[nH]c1C,i,-6,1,i,i,i,i,i,i,0
COc1ccc(C(=O)COC(=O)[C@H](C)NS(=O)(=O)c2ccc(NC(C)=O)cc2)cc1OC,.,.,.,.,.,.,.,.,i,.
O=C(CCC(=O)c1cccs1)NC(c1ccccc1)c1ccccc1,i,-8,1,i,i,i,i,i,i,-1
COn1c(-c2ccccc2)c(C=O)c2ccccc21,i,-10,-1,i,i,i,i,i,i,-1
CN(C)CCOC(=O)c1ccc2c(c1)S(=O)(=O)c1ccccc1C2=O,i,-11,0,i,i,i,i,i,i,15
COc1ccc(NC(=S)Nc2ccc3cn[nH]c3c2)cc1,i,-7,-6,i,i,i,i,i,i,36
CCOC(=O)CSc1ccc2nnc(-c3cccs3)n2n1,i,-11,-61*,i,i,i,i,i,i,61*
O=S(=O)(Nc1cccnc1)c1ccc2c(c1)OCCO2,i,-4,0,i,i,i,i,i,i,11
C=CCn1cnc2scc(-c3ccc(OC)cc3)c2c1=O,i,-10,-4,i,i,i,i,i,i,0
O=C(O)CSc1ncnc2scc(-c3ccc(Br)cc3)c12,i,-6,0,i,i,i,i,i,i,-1
O=C(NC1(C(F)(F)F)C(=O)Nc2c1c(=O)[nH]c(=O)n2-c1ccccc1)c1cccnc1 (centres undefined),.,.,.,.,.,.,.,.,i,0
Cc1cc(C)c(S(=O)(=O)Nc2cccc(S(=O)(=O)N3CCOCC3)c2)c(C)c1,i,-8,2,i,i,i,i,i,i,-1
O=C(NCCc1c[nH]c2ccccc12)c1cnc2sccn2c1=O,i,-12,1,i,i,i,i,i,i,1
Cc1cc(=O)n2[nH]c(-c3ccccc3Cl)cc2n1,i,-8,-2,i,i,i,i,i,i,10
O=c1oc2ccccc2c(Nc2cccc3ccccc23)c1[N+](=O)[O-],i,-7,3,i,i,i,i,i,i,0
CCOC(=O)c1cc(C(C)=O)c(=O)[nH]c1C,i,-5,2,i,i,i,i,i,i,-2
CC(/C=N/n1c(-c2cccnc2)n[nH]c1=S)=C\c1ccccc1,i,-8,1,i,i,i,i,i,i,6
Cn1c2ccccc2c2cc(/C=C(\NC(=O)c3ccccc3)C(=O)NCC(=O)O)ccc21,i,-12,3,i,i,i,i,i,i,-4
CC(C)C[C@H](CO)Nc1nc(Nc2cccc(Cl)c2)c2ncn(C(C)C)c2n1,i,-7,0,i,i,i,i,i,i,-3
C1=C(c2ccccc2)Nc2ccccc2N=C1c1ccccc1,i,-11,0,i,i,i,i,i,i,1
c1ccc(-c2nc(NCC3CCCO3)c3ccccc3n2)nc1 (centres undefined),i,-15,0,i,i,i,i,i,i,0
CCc1cc(Cn2nc(-c3ccccc3C)cc2C(=O)O)on1,.,.,.,.,.,.,.,.,i,-5
Cc1cc2c(Nc3ccc(O)cc3)ncnc2s1,i,-4,-27,i,i,i,i,i,i,13
Oc1cccc(Nc2nc(-c3ccccc3)nc3ccccc23)c1,i,-3,3,i,i,i,i,i,i,1
COc1cc(-c2nc3ccccn3c2NCC2CCCO2)ccc1O (centres undefined),i,-33,-1,i,i,i,i,i,i,-1
CC(C)c1ccc(NC(=O)CN(Cc2ccccc2)S(C)(=O)=O)cc1,i,-8,2,i,i,i,i,i,i,-1
Cc1ccc(C2=NN3C(=O)c4ccccc4C3C2)cc1 (centres undefined),i,-5,-19,i,i,i,i,i,i,3
O=C(O)c1cc2ccc3cccc4ccc(c1)c2c34,i,-4,1,i,i,i,i,i,i,-5

# Ordered by SMILES length (ascending): 4 of the compounds above
SMILES,RGS4 act,hERG protect,GSK3B inh,PolyA inhibitor,KCNQ1 block,KCNQ1 act,KCNK9 block,RGS4 block,KCNK3 block,GSK3A inh
Cc1ccc(C2=NN3C(=O)c4ccccc4C3C2)cc1 (centres undefined),i,-5,-19,i,i,i,i,i,i,3
c1ccc(-c2nc(NCC3CCCO3)c3ccccc3n2)nc1 (centres undefined),i,-15,0,i,i,i,i,i,i,0
CCc1cc(Cn2nc(-c3ccccc3C)cc2C(=O)O)on1,.,.,.,.,.,.,.,.,i,-5
CC(/C=N/n1c(-c2cccnc2)n[nH]c1=S)=C\c1ccccc1,i,-8,1,i,i,i,i,i,i,6

# Limited to KCNK3 block, hERG protect and GSK3A inh, for some of the entries so far:
canonical_smiles	KCNK3 block	hERG protect	GSK3A inh
Cn1c2ccccc2c2cc(/C=C(\NC(=O)c3ccccc3)C(=O)NCC(=O)O)ccc21	i	-12	-4
CC(C)C[C@H](CO)Nc1nc(Nc2cccc(Cl)c2)c2ncn(C(C)C)c2n1	i	-7	-3

# The results go on:
SMILES,RGS4 act,hERG protect,GSK3B inh,PolyA inhibitor,KCNQ1 block,KCNQ1 act,KCNK9 block,RGS4 block,KCNK3 block,GSK3A inh
Cc1oc2c(F)c(F)c(F)c(F)c2c1S(=O)(=O)Nc1cccc(C(F)(F)F)c1,-9.3*,-6,5,i,12*,i,i,i,i,-3
S=C(Nc1ccc2cn[nH]c2c1)Nc1ccccc1Cl,i,-9,-15,i,i,i,i,i,i,17
CCCNC(=O)CCC(=O)Nc1ncc(-c2ccc(C)cc2)n1C,i,-18,-1,i,i,i,i,i,i,1
OCCNc1ncnc2ccc(Br)cc12,i,-4,0,i,i,i,i,i,i,4
CCCOC(=O)c1ccc(OC(=O)c2ccco2)cc1,i,-9,0,i,i,i,i,i,i,-2
CCCN1CCN(C(=O)CCCNC(=O)Cn2cnc3sc(C)c(C)c3c2=O)CC1,i,-9,1,i,i,i,i,i,i,0
O=C(CN1C(=O)NC2(CCCC2)C1=O)Nc1nc2ccc(F)cc2s1,i,-15,-3,i,i,i,i,i,i,5
COc1ccc(CCNc2nc3ccc(C)cc3n3cnnc23)cc1OC,i,-7,-2,i,i,i,i,i,i,-2
C=CCN(c1ccccc1)S(=O)(=O)c1cc2c(cc1C)NC(=O)CO2,i,-11,2,i,i,i,i,i,i,-3
COc1c(-c2ccc(O)cc2)oc2cc(O)cc(O)c2c1=O,.,.,.,.,.,.,.,.,i,54*
O=C1CCCC(=O)C1=C1SCCCS1,i,-8,3,i,i,i,i,i,i,-3
Nc1nc(Nc2ccccc2)nc2c1ncn2[C@@H]1O[C@H](CO)[C@@H](O)[C@H]1O,i,-5,-2,i,i,i,i,6.2*,i,0
Cc1cc(C(=O)CN2C(=O)c3ccccc3C2=O)c(C)n1C1CC1,i,-5,6,i,i,i,i,i,i,0
O=C(CN1C(=O)C2CCCCC2C1=O)Nc1nc2ccc(F)cc2s1 (centres undefined),i,-7,-8,i,i,i,i,i,i,8
CC1CCCN(C(=O)c2cc(-c3cccs3)nc3ccccc23)C1 (centres undefined),.,.,.,.,.,.,.,.,i,1
COc1ccc(C2CC2/C(C)=N/OC(=O)C2CC2)cc1 (centres undefined),i,-6,-3,i,i,i,i,i,i,0
C1CCC(n2nnnc2CN2CCN(C3CCCC3)CC2)CC1,i,-6,0,i,i,i,i,i,i,.
Cc1cc(C)c(S(=O)(=O)Nc2cccc(-n3cnnn3)c2)c(C)c1,i,-5,8,i,i,i,i,i,i,0
COc1ccc(/C=C(\C#N)C(=O)Nc2cccc3ncccc23)cc1OC,i,-6,1,i,i,i,i,i,i,0
Oc1ccc(C(c2nnnn2C2CCCC2)N2CCc3ccccc3C2)cc1 (centres undefined),i,-11,-1,i,i,i,i,i,i,3
Nc1nc(/C=C/c2ccc(F)cc2)nc(-c2ccccc2O)n1,i,-9,4,i,i,i,i,i,i,0
Fc1ccccc1-c1nnc2c3ccccc3nc(N3CCOCC3)n12,i,-11,2,i,i,i,i,i,i,22
Cc1nc2ccccc2c2oc(C(=O)Nc3ccc4c(c3)OCCO4)cc12,i,-10,1,i,i,i,i,i,i,-1
COC(=O)CCCC1=CC2=CC(=O)C(C)(OC(=O)CCc3ccccc3)C(=O)C2=CO1 (centres undefined),i,-7,3,i,i,i,i,i,i,.
CCCC(=O)Nc1nc2ccc3nc(C)sc3c2s1,i,-8,-8,i,i,i,i,i,i,12
CC1(OC(=O)c2cccs2)C(=O)C=C2C=C(C3CC3)OC=C2C1=O (centres undefined),i,-4,3,i,i,i,i,i,i,-1
CCN1/C(=C\C=C(C(C)=O)C(C)=O)Sc2ccccc21,i,-22,-1,i,8*,i,i,i,i,3
Cn1c(C(=O)NCCCN2CCc3ccccc3C2)cc2c(=O)n(C)c3ccccc3c21,i,-17,2,i,i,i,i,i,i,.
COc1ccc(S(=O)(=O)N2CCCC2C(=O)Nc2nc3c(s2)CCCC3)cc1 (centres undefined),i,-11,0,i,i,i,i,i,i,0
Cn1c(=O)c2c(ncn2CC(=O)N2CCN(c3ccccc3F)CC2)n(C)c1=O,i,-2,2,i,i,i,i,i,i,1
CC(c1cccnc1)N(CCN(C)C)C(=O)Nc1ccc(Cl)cc1 (centres undefined),i,-10,1,i,i,i,i,i,i,-2
